# RVFV N-RNA inh – inhibitors of Rift Valley Fever Virus nucleocapsid-RNA interaction; P21700; RVFV N-RNA binding, fluorescence polarization; active compounds read low; % bound, % (concentration not given with the values); 20,000 tested, 0.1% active; AID 651828;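 active means between 0 and 58% in either replicate with normal brightness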;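 further: 100 nL library stock added to about 12 µL; 100% = protein and probe without compound and 0% = probe alone; numbers are from one replicate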
# Target sequence (P21700 whole entry, looked up): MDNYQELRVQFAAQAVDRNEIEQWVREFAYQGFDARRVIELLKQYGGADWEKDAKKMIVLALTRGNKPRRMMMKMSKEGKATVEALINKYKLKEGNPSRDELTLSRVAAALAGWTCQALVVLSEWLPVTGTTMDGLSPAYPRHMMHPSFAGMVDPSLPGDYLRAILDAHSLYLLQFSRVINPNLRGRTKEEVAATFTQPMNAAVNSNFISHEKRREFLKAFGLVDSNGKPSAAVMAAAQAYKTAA
# Starred values were filed as active, the others as inactive; & = joins results of further samples. An excerpt; the hit share may differ from the screen's.
SMILES,RVFV N-RNA inh
CCc1ccc(N2CCN(S(=O)(=O)CC34CCC(CC3=O)C4(C)C)CC2)cc1 (configuration not stated),93
Clc1ccc(COC(Cn2ccnc2)c2ccc(Cl)cc2Cl)cc1 (configuration not stated),100
Cc1nc(N=Nc2ccc(S(=O)(=O)O)cc2S(=O)(=O)O)c(COP(=O)(O)O)c(C=O)c1O,93
CCc1ccc(N=C2NC(=O)/C(=C/c3cc(C)n(CC)c3C)S2)cc1,89
COC(=O)c1c(NC(=S)Nn2cnnc2)sc2c1CCC(C)C2 (configuration not stated),89
c1nc2c3c4c(sc3ncn2n1)CCCC4,99
O=c1oc2ccccc2c2c1ncn2-c1ccccc1,95
CS(=O)(=O)Nc1ccc(-c2n[nH]c(=S)n2-c2ccccc2)cc1,97
Cc1ccc(NC(=O)COc2ccc(/C=c3/sc4n(c3=O)CCN=4)cc2)cc1,91
O=C1SCCC1NS(=O)(=O)c1ccc(Cl)c(Cl)c1 (configuration not stated),104
COC(=O)Cc1c(C)c2ccc(OC(C)C)cc2oc1=O,95
CN(C)C(=O)c1cccc2c1-c1ccccc1C2,100
CCN(CC)C(=O)NCC1CCCO1 (configuration not stated),92
Cn1nc(-c2ccc(Br)s2)c(Br)c1C(F)(F)F,98
CCN(CC)Cc1ccc(NC(=O)c2cccc(C)c2)cc1,101
Cc1c2c(n3c(nc4ccccc43)c1C#N)N(Cc1cccnc1)CC2,111
Cc1ccccc1Cn1nc(-c2ccc3c(c2)OCO3)ccc1=O,88
CC(=O)/C=C1\C(=O)N(C)c2ccccc21,97
CCOc1ccc(OCCCCN(C)C)cc1,88
O=C(c1ccc(=O)[nH]n1)N1CCN(c2ccccc2)CC1,95
O=C(O[C@H]1[C@H](Oc2ccccc2COC(=O)C2(O)C=CCCC2=O)O[C@H](CO)[C@@H](O)[C@@H]1O)c1ccccc1 (some centres not stated),102
N#Cc1ccc(C(=O)CSc2n[nH]c(=O)n2Cc2ccco2)cc1,100
COc1ccccc1CNn1c(C)nnc1SCc1ccccc1F,92
CCCCNC(=O)N1CCN(c2ccnc3cc(Cl)ccc23)CC1,99
COc1cc(CN2CC=C(c3ccc(F)cc3)CC2)cc2c1OCO2,101
N#CCn1ccn(-c2ccc3c(c2)OCO3)c(=O)c1=O,93
COc1ccc(C2OC(=O)Cc3cc(OC)c(OC)cc32)cc1OC (configuration not stated),92
O=C(CCC(=O)Nc1ccccc1)NN=C1CCCCC1,117
COc1cc2c(cc1OC)C(COc1cc(C)cc(C)c1)N(C(C)=O)CC2 (configuration not stated),87
CC(=O)N1c2ccccc2NC2=C(C(=O)CCC2)C1c1ccccc1 (configuration not stated),94
Cc1[nH]c(C)c(Cl)c(=O)c1Cl,99
O=C(Nc1cccnc1)N(c1ccccc1)c1ccccc1,92
O=C1c2ccccc2C(=O)N1Cc1cc(Cl)c2cccnc2c1O,90
Cc1ccc(-c2nc3ncccc3o2)cc1NC(=S)NC(=O)c1oc2ccccc2c1C,92
CCOC(=O)C1(C(=O)OCC)CCC1,96
CCN(CC)C(=O)Oc1cc2c(-c3cc4cccc(OC)c4o3)cc(=O)oc2cc1C,94
O=C(Nc1cc(C(F)(F)F)cc(C(F)(F)F)c1)C1CC1,91
O=C1c2ccccc2C(=O)N1CCC(c1ccccc1)c1ccco1 (configuration not stated),98
Cc1cc2oc(=O)cc(-c3cc4ccccc4o3)c2cc1O,96
O=C(CCOc1ccccc1)Nc1nc2cc3c(cc2s1)OCO3,98
Cn1c2ccccc2c2ccccc21,91
COc1ccc(/C=C/C(=O)NCCN2CCOCC2)cc1S(=O)(=O)N1CCCCC1,111
CC1(CC(=O)N/N=C/c2ccc(-c3cccc(C(F)(F)F)c3)o2)OCCO1,93
S=C(NC1Cc2ccccc2C1)N1CCCC1,96
CCN1C(=O)CC(N2CCC(CCc3ccc(OC)cc3)CC2)C1=O (configuration not stated),97
Cc1nc(-c2ccc(S(=O)(=O)NCCCN)s2)cs1,93
Cc1ccc(NC(C)c2cc(Cl)ccc2O)cc1 (configuration not stated),97
Cc1cc(C)c(C#N)c(N)c1C#N,94
S=c1[nH]nc(-c2ccccc2)o1,91
CC(C)CNC(=O)c1cnc2n(c1=O)CCS2,98
# The list continues:
SMILES,RVFV N-RNA inh
Cc1cc(C)nc(SC(C)C(=O)Nc2ccccc2C#N)n1 (configuration not stated),88
CN(C)c1ccc(C2NC(=S)NC3=C2CCc2ccccc23)cc1 (configuration not stated),95
C[C@@H](N)Cc1cnc[nH]1,94
Cn1c(SCC(=O)N/N=C/c2ccccc2)nc2ccccc21,89
Cn1c(-c2oc3nc(-c4ccccc4)cc(-c4ccco4)c3c2N)n[nH]c1=S,97
Cc1cc2ncn(CC(C)C)c2cc1C,94
Cc1ccc(S(=O)(=O)/N=C2\NC(=O)CS2)cc1,101
CC1(C)CC(=O)c2cnc(NC(=O)CSc3nc4ccccc4o3)nc2C1,92
O=C(CSc1nccc(=O)[nH]1)c1cccs1,98
FC(F)C(F)(F)c1cc(-c2ccccc2)n[nH]1,96

# In a second layout: 10 of the compounds above
molecule	RVFV N-RNA inh
Cc1cc(C)nc(SC(C)C(=O)Nc2ccccc2C#N)n1 (configuration not stated)	88
CN(C)c1ccc(C2NC(=S)NC3=C2CCc2ccccc23)cc1 (configuration not stated)	95
C[C@@H](N)Cc1cnc[nH]1	94
Cn1c(SCC(=O)N/N=C/c2ccccc2)nc2ccccc21	89
Cn1c(-c2oc3nc(-c4ccccc4)cc(-c4ccco4)c3c2N)n[nH]c1=S	97
Cc1cc2ncn(CC(C)C)c2cc1C	94
Cc1ccc(S(=O)(=O)/N=C2\NC(=O)CS2)cc1	101
CC1(C)CC(=O)c2cnc(NC(=O)CSc3nc4ccccc4o3)nc2C1	92
O=C(CSc1nccc(=O)[nH]1)c1cccs1	98
FC(F)C(F)(F)c1cc(-c2ccccc2)n[nH]1	96

# Carrying on.
SMILES,RVFV N-RNA inh
C=CCn1c(COC)nnc1SCC(=O)c1ccc(Br)cc1,100
CS(=O)(=O)Nc1ccc(C2=NN(C(=O)c3ccccc3)C(c3ccco3)C2)cc1 (configuration not stated),92
Cc1cc(=O)[nH]c2ccc(S(=O)(=O)NC3CCCCC3)cc12,95
COC(=O)c1cc2c(s1)-c1cc(F)ccc1OC2,93
N#CC(C#N)=CNc1cc(-c2ccc(Cl)cc2)sc1C(N)=O,92
C=CCNC(=O)C(C)Oc1ccccc1 (configuration not stated),104
O=S(=O)(NC(=S)NC1CCCCC1)c1ccccc1,90
COc1cc2c(cc1OC)/C(=C/C(N)=O)NC(C)(C)C2,93
O=C(c1ccc(NS(=O)(=O)c2ccccc2)cc1)N1CCN(Cc2ccc3c(c2)OCO3)CC1,91
O=C1C2C=CC=CC2=NC(=S)N1CCN1CCC(=C(c2ccc(F)cc2)c2ccc(F)cc2)CC1 (configuration not stated),98
Cc1cc(C)nc(NC(=O)/C=C/c2ccccc2Cl)n1,100
O=C(O)CCCn1cc(NC(=O)c2ccco2)cn1,100
O=C(c1ccco1)N1CCN(C(c2ccccc2)c2sc3ncnn3c2O)CC1 (configuration not stated),100
CC1=C(C#N)C(c2cccnc2)C2=C(CC(c3ccc(Cl)cc3)CC2=O)N1 (configuration not stated),100
CCOC(=O)N1CCN(C(=O)c2sc3nc(-c4ccc(F)cc4)cn3c2C)CC1,96
CCNC(=S)Nc1ccc(NC(=S)NCC)cc1,90
CC(=O)Nc1cccc(C(=O)N(C)c2ccccc2)c1,97
COc1cc(/C=C2\N=C(SC)SC2=O)cc(OC)c1OC(C)=O,88
CCOC(=O)Cn1c(-c2ccco2)nc(-c2ccccc2)c1-c1ccccc1,101
COc1cccc(C(=O)NCc2cn3ccccc3n2)c1,88
CCOc1ccc(N=C2NC(=O)C(CC(=O)NC(N)=O)S2)cc1 (configuration not stated),97
O=C(O)CN(CCN(CC(=O)O)CC(=O)O)CCN(CC(=O)O)CC(=O)O,94
CCOC(=O)c1cccc(NC(=O)c2ccc3c(c2)C(=O)N(Cc2ccco2)C3=O)c1,99
COc1c(Cl)ccc(Cl)c1C(=O)NC(=S)N1CCOCC1,92
CC(C)N(C(=O)c1cnc2n(c1=O)CCS2)C(C)C,89
COC(=O)c1cc(Cl)c(NC(=O)C(C)C)cc1OC,95
Nc1ccccc1Sc1c(Cl)cncc1Cl,101
O=C(Nc1ccc(I)cc1C(=O)NCCN1CCOCC1)c1ccco1,90
S=C1NCN(CCc2ccccn2)CN1,91
C=CCSc1nc(Nc2ccc(Cl)cc2)c2cnc(N3CCOCC3)nc2n1,102
Cc1cccc(-c2cc(C(=O)N3CCN(C(=O)c4ccco4)CC3)c3ccc(Cl)c(C)c3n2)c1,100
COc1ccc(C(=O)n2ccc(-c3cccs3)n2)cc1OC,100
O=c1[nH]cnc2c1cnn2-c1ccccc1,98
C[N+]1(C)CCC(OC(=O)C(O)(c2ccccc2)C2CCCC2)C1 (configuration not stated),94&90
Cc1ccc2[nH]c(=S)oc2c1,82
COc1ccc(-c2nc(C#N)c(N3CC(C)CC(C)C3)o2)cc1 (configuration not stated),99
Cc1cc(=O)oc2ccc(OC(=O)Cc3cccs3)cc12,97
Clc1nnc(N/N=C/c2ccccc2)c2ccccc12,96
Cc1cc(N=CNOC(=O)c2nn(-c3ccccc3)nc2C)no1,95
Cc1ccc(C(O)(C(F)(F)F)C(F)(F)F)o1,101
Cc1ccc(NC(=O)c2ccc(CN3CCN(C)CC3)cc2)cc1Nc1nccc(-c2cccnc2)n1,93&103
N#Cc1ccc(NC(=O)CCC2CCCC2)cc1,103
Cc1ccc(N2CC(NC(=O)N3CCN(c4ccc(F)cc4)CC3)CC2=O)cc1C (configuration not stated),100
NC1=NC(=O)/C(=C/c2cccs2)S1,108
O=C(O)CSc1nc2cc(N3CCOCC3)c(F)cc2[nH]1,103
COc1cc(OC)c(/C=C2/C(=O)Nc3ccccc32)c(OC)c1,96&98
O=C(CN1CCCCC1)N1N=C(c2cccs2)CC1c1ccc(O)cc1 (configuration not stated),94
O=C(/C=N/O)c1ccc(Cl)cc1Cl,101
Cc1c(NC(=O)c2ccc(S(=O)(=O)N3CCCC3)cc2)c(=O)n(-c2ccccc2)n1C,99
C=C(C)C1CC=C(C(=O)O)CC1 (configuration not stated),85
# (next part)
SMILES,RVFV N-RNA inh
COC(=O)c1ccc(N2CCN(C)CC2)c(NC(=O)c2ccc(C#N)cc2F)c1,88
Cc1ccccc1NC(=O)/C=C\C(N)=O,99
CCOC(=O)c1cc(-c2csc(CS(=O)(=O)c3ccccn3)n2)on1,93
COc1ccnc(C(=O)O)c1,98
COc1ccc(N2CC(NC(=O)Nc3ccc(S(=O)(=O)NC(C)=O)cc3)CC2=O)cc1 (configuration not stated),98
COC(=O)c1ccccc1NC(=O)N1CCCc2cc(C)ccc21,92
Cn1/c(=N/N=c2\oc3ccccc3n2C)oc2ccccc21,100
NC(=O)c1ccccc1NC(=O)Cc1c(F)cccc1Cl,97
Nc1nc(N)c(N=O)c(OCC2CCCCC2)n1,94
COC(=O)/C(C#N)=C/c1ccc(C)o1,95
O=C1NC(Cc2ccccc2)C(=O)N1c1ccccc1 (configuration not stated),97
CC(=O)NC1=NN(C(C)=O)C2(CCCC2)S1,94
O=C(Nc1ccc(Cl)cc1)c1cc2ncc(Br)cn2n1,92
C(=N\n1cnnc1)/c1ccc(OCc2ccccc2)cc1,92
NC(=O)C1CCN(C(=O)C2(c3cccs3)CCOCC2)CC1,103
CCCCCCCCCC(=O)N[C@@H](Cc1c[nH]c2ccccc12)C(=O)N[C@@H](CC(N)=O)C(=O)N[C@@H](CC(=O)O)C(=O)N[C@@H]1C(=O)NCC(=O)N[C@@H](CCCN)C(=O)N[C@@H](CC(=O)O)C(=O)N[C@H](C)C(=O)N[C@@H](CC(=O)O)C(=O)NCC(=O)N[C@H](CO)C(=O)NC([C@@H](C)CC(=O)O)C(=O)N[C@@H](CC(=O)c2ccccc2N)C(=O)OC1C (some centres not stated),98
COc1ccc(C(=O)NCCS(=O)(=O)N2CCc3ccccc3C2)cc1OC,93
CC1(C)CN=C(Nc2ccc(C(F)(F)F)cc2)S1,97
O=C(O)C1CCC(CNS(=O)(=O)c2ccc(Br)cc2)CC1 (configuration not stated),100
N#CCCn1cc(C(=O)Oc2ccccc2)c(-c2cccc(Br)c2)n1,110

# Some of the entries above in another layout:
mol	RVFV N-RNA inh
COc1ccc(C(=O)NCCS(=O)(=O)N2CCc3ccccc3C2)cc1OC	93
CC1(C)CN=C(Nc2ccc(C(F)(F)F)cc2)S1	97
O=C(O)C1CCC(CNS(=O)(=O)c2ccc(Br)cc2)CC1 (configuration not stated)	100
N#CCCn1cc(C(=O)Oc2ccccc2)c(-c2cccc(Br)c2)n1	110

# Continued.
SMILES,RVFV N-RNA inh
COC(=O)c1sccc1NNC(=O)/C(C)=C/C(=O)O,93
C=CCn1c(Cc2ccc(OC)c(Cl)c2)n[nH]c1=S,93
CCN1C(=O)S/C(=C\C(=O)O)C1=O,99
C/C(=N\NC1=NCCCN1)c1ccccc1,98
COc1cccc2cc(C(=O)NCCN(C)C)c(=O)oc12,94
N#Cc1c(-c2ccc(Cl)cc2Cl)c(C#N)c(=O)n(N)c1N,91
CC(C)CN=CC1=C(O)c2ccccc2C1=O,94
CS(=O)(=O)c1ccccc1C(=O)Nc1nccs1,96
CC1(N(O)C=C2C=CC(=O)C=C2)CCCCC1=O (configuration not stated),80
Cc1cccc(OCC(=O)Nc2cccc(-c3nc4ncccc4o3)c2)c1,97
Clc1ccc(CCC(Cn2ccnc2)Sc2c(Cl)cccc2Cl)cc1 (configuration not stated),100
C=CCN(CC=C)C(=O)C1CCC(C(=O)N(CC=C)CC=C)CC1 (configuration not stated),100
Cn1cccc1/C=C1\SC(=S)NC1=O,104
CCOC(=O)[C@@H]1CSC2C3SC[C@@H](C(=O)OCC)N3CCN21 (some centres not stated),91
O=S(=O)(c1ccccc1)N1CCN(CC2CC=CCC2)CC1 (configuration not stated),94
[Li+],92
O=C(Nc1ccncc1)c1cnc2sccn2c1=O,97
O=[N+]([O-])c1ccc([As](=O)(O)O)cc1,109
CN1C(=O)C2(C(C#N)=C(N)Oc3cc(O)ccc32)c2ccccc21 (configuration not stated),82
COc1ccc(OCC(O)CNC(=S)Nc2ccc3c(c2)OCO3)cc1 (configuration not stated),95
N#CCCOC1(C#CC#CC2(OCCC#N)CCCCC2)CCCCC1,99
COc1cc(S(=O)(=O)N(C)C)ccc1F,99

# Screening results as filed in PubChem.
